Menin MLL FP FL: menin-MLL binding inhibition, fluorescein peptide | AID 1766 | FP activity change, % at 61.4 µM | Fluorescence polarization, fluorescein-MLL peptide displacement from menin | 290,000 tested, under 10 active; inconclusive = falling polarisation curve, or a change in total fluorescence; inactive = total fluorescence flat and polarisation flat or rising; no compound was filed as active; the % refers to the polarisation; negative = inhibition;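 note: % of control where 0% means no effect; inhibitors lower the polarisation; unlabelled MLL peptide was the positive control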
gsp ag: agonists of gsp mutant (McCune-Albright syndrome). gsp mutant cells, cAMP HTRF, 30 min; control for the full effect not named in the record. Potency, µM (titrated, usually from 76.9 µM), without a hit: at the highest dose activation (cAMP increase), actives largely listed as activators. 340,000 tested, 0.13% active. AID 624287; active = well fitted activation curve with a large enough effect; inconclusive = small, poorly fitted or top-dose-only effect, or another doubt; inactive = no such curve, though single readings can be large or run the other way; cell line not stated here;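 note: phosphodiesterase inhibitor Ro 20-1724 added with compounds to block cAMP breakdown; potency is the fitted concentration of half-maximal effect; nearly all actives have a fitted effect of over 60% in size; about a fifth of the inactives were tested at one dose only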
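Cells stably selected in G418 were plated at 2000/well, grown 16-24 hr, then given compounds in DMSO with the PDE inhibitor […] (300 uM solution added) for 30 min at 37C; cAMP was read by HTRF.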
ClpP mod: qHTS Assay for Activators of ClpP | AID 651965, 2013 | Potency, µM (series often up to 57.5 µM), for inactives: at the highest dose activity change, negative = active | 340,000 tested, 1.9% active | purified B. subtilis ClpP, FRET peptide cleavage, 20 min; active = well fitted falling curve with a large enough effect; inconclusive = small, poorly fitted or top-dose-only effect; inactive = no such curve, though single readings can be large or run the other way; note: potency is the fitted concentration of half-maximal effect; the source files actives as falling curves though it sought activators and does not explain the sign; nearly all actives have a fitted effect of over 65% in size; many hits overshoot -100%
Target sequence (P80244 whole entry, looked up): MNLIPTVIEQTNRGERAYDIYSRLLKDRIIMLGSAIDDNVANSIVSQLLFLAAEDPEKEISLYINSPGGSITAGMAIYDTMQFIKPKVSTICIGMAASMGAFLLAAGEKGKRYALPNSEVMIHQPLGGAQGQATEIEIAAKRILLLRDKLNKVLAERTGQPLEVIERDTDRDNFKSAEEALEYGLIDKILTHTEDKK
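ClpP 10 microg/mL final, pH 8 Tris/KCl buffer with BSA, glycerol, Tween-20; compound pinned in; FRET-FV substrate; RT 20 min; Ex320/Em430; ΔFRET vs ADEP 5.8 microM, DMSO, no enzyme.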
TRPML1 agonist: agonists of human TRPML1 channel; Q9GZU1; TRPML1-expressing cells, Ca2+ dye fluorescence, FDSS; host cell line not named in the record; reference of the full effect not given here; activation, % (test concentration not listed); 410,000 tested, 0.12% active; in the data active = activation above about 50%; inconclusive = about 30% to 50%; inactive = below about 30%; note: 0% is about no effect; the text of the record puts the active cut at 80%
Target sequence (Q9GZU1 whole entry, looked up): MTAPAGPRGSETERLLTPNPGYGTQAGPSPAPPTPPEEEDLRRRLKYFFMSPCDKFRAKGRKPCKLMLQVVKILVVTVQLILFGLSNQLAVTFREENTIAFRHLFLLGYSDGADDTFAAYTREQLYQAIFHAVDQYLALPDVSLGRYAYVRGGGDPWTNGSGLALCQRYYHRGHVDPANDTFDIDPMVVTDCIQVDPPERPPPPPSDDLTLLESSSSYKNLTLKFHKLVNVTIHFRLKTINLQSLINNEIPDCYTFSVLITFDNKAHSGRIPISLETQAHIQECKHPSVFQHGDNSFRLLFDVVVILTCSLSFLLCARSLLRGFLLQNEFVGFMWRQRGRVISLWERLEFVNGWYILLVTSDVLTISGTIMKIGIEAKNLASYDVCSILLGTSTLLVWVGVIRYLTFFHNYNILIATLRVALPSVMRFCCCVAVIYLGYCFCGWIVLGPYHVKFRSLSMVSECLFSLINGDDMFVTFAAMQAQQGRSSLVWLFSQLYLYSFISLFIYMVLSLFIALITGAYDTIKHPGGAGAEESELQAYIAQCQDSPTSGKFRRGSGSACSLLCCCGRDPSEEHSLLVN
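TRPML1-DL cells, Tet-induced overnight (~16 h, 37 degrees C), loaded 45-90 min at room temperature with Ca8 no-wash calcium dye plus quencher. FDSS fluorescence: 10 s baseline, compound pin-transfer, 110 s agonist read, then EC80 54-4 (4uM final) and 110 s antagonist read.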
gsp antagonist: gsp mutant antagonism | AID 624288 | Potency, µM (top dose mostly 76.9 µM), inactives show at the highest dose activity change, negative = inhibition, most hits filed as inhibitors | 340,000 tested, 0.4% active | gsp-mutant cells, cAMP HTRF, 30 min; control for the full effect not named in the record; active = falling curve of any shape with a large fitted effect; inconclusive = falling curve, mostly with a smaller effect; inactive = flat or rising curve; cell line not stated here;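 note: intracellular cAMP measured with PDE inhibitor Ro 20-1724 present during compound exposure; potency is the fitted concentration of half-maximal effect; % is set by controls: 0 for no effect and ±100 for the full control effect; nearly all actives have a fitted effect of over 65% in size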
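Cells, 2000/well, grown 16–24 h in DMEM 10% FBS with 0.5 mg/ml G418, then compounds plus […] (300 uM addition stock), 30 min at 37C. cAMP read by HTRF (cAMP-d2 and anti-cAMP antibody-K in lysis buffer) after 30 min RT.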
TRPML1 inh: human mucolipin-1 channel inhibition. Q9GZU1. TRPML1-inducible cells, Ca2+ dye fluorescence, FDSS; hits give low values; inhibition of EC80 agonist-evoked calcium signal. activity change, negative = inhibition, % (test concentration not listed). 390,000 tested, 0.02% active; in the data active means activity change below about -50%; inconclusive means about -30% to -50%; inactive means above about -30%;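 note: stimulus is agonist 54-4 at its EC80 concentration; % is set by controls: 0 for no effect and ±100 for the full control effect; compound concentration not given in the record; the text of the record puts the active cut at -80%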
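TRPML1-DL cells, Tet-induced overnight (~16 h, 37 °C) at 1,500 cells/well, were loaded with Ca8 no-wash dye plus quencher for 45-90 min at room temperature. Compounds were pinned during FDSS kinetic reading; agonist 54-4 at EC80 (4 uM final) then added.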
Numbers without * were called inactive; & = joins results of further samples; [ ] = another dose, or the depositor's remark.

COc1ccc(C2=NN(C(=O)CSc3ncccn3)C(c3cccc(OC)c3OC)C2)cc1 (stereo not drawn) was read as Menin MLL FP FL -0.1, gsp ag 18%, TRPML1 agonist 0.2, gsp antagonist -13% and TRPML1 inh 4.
For COC(=O)C1=C(C)N(Cc2ccccc2)C(=NCc2ccccc2)N[C@H]1c1ccccc1 the results were Menin MLL FP FL 3.4, gsp ag -4%, ClpP mod -1.8%, TRPML1 agonist 1.0, gsp antagonist 10% and TRPML1 inh 23.
For COc1ccc(C2=C(C)C(N3CCC(C(=O)Nc4ccc(F)cc4C)CC3)=NS2(=O)=O)cc1 the results were ClpP mod -5.0%, TRPML1 agonist 4.0 and TRPML1 inh 11.
`Cc1ccc(-c2c(C(=O)N/N=C/c3ccco3)nnn2-c2nonc2N)cc1` gave Menin MLL FP FL 4.2, gsp ag -4%, ClpP mod 0.1%, TRPML1 agonist 1.3, gsp antagonist -27% and TRPML1 inh -7.
For CCn1c(=O)c(C(=O)CN2c3ccccc3CC2C)c(N)n(Cc2ccccc2)c1=O (stereo not drawn) the results were Menin MLL FP FL 3.0, gsp ag 8%, ClpP mod -3.3%, TRPML1 agonist 1.9, gsp antagonist -7% and TRPML1 inh -13.
`O=c1c2cnn(-c3ccc(F)cc3)c2ncn1Cc1cccnc1` gave Menin MLL FP FL 1.2, gsp ag inconclusive, ClpP mod -9.0%, TRPML1 agonist -0.8, gsp antagonist -1% and TRPML1 inh 2.
`CSc1ccccc1C(=O)N1CCCC(CCC(=O)NCc2ccc(F)c(F)c2)C1` (stereo not drawn) gave Menin MLL FP FL -4.1, gsp ag -49%[inhibitor], ClpP mod 1.4%, TRPML1 agonist 2.1, gsp antagonist inconclusive and TRPML1 inh 6.
Screening CCCN(CCC)CCCNc1ccc2nnc(-c3ccc(F)cc3)n2n1 returned Menin MLL FP FL -0.1, gsp ag 27%, ClpP mod -22%, TRPML1 agonist -0.1, gsp antagonist 4% and TRPML1 inh -9.
Screening CCCN(CCC)c1nc(-c2ccccc2F)nc2ccccc12 returned ClpP mod -0.5%, TRPML1 agonist 1.2 and TRPML1 inh -15.
For O=C(NC1CCCc2ccccc21)c1ccc2c(c1)OCO2 (stereo not drawn) the results were Menin MLL FP FL -2.1, gsp ag -3%, ClpP mod -7.8%, TRPML1 agonist 0.7, gsp antagonist -3% and TRPML1 inh -5.
`COc1cc(OC)cc(C(=O)NCC(=O)OCC(=O)NC(C)CCc2ccccc2)c1` (stereo not drawn) gave gsp ag -7%, ClpP mod -2.5%, TRPML1 agonist 0.4, gsp antagonist -6% and TRPML1 inh -10.
For CCN(C(=O)COC(=O)CCc1c[nH]c2ccccc12)c1c(N)n(Cc2ccccc2)c(=O)[nH]c1=O the results were gsp ag -112%[inhibitor], ClpP mod -1.8%, TRPML1 agonist 0.9, gsp antagonist 20% and TRPML1 inh 30.
Screening COC(=O)c1cc(-c2ccc(Br)cc2)n[nH]1 returned Menin MLL FP FL 1.6, gsp ag -22%, ClpP mod -3.2%, TRPML1 agonist 1.0, gsp antagonist -21% and TRPML1 inh 4.
`COc1ccccc1CN(C)C[C@@H]1OCc2cnnn2CCCC(=O)N([C@H](C)CO)C[C@H]1C` gave gsp ag -28%, ClpP mod -1.3%, TRPML1 agonist -0.3 and TRPML1 inh -10.
For CC(C)NCC(O)COC1C2CC3CC(C2)CC1C3 (stereo not drawn) the results were Menin MLL FP FL -8.1, gsp ag 4%, TRPML1 agonist 0.1, gsp antagonist -2% and TRPML1 inh 8.
For COCCN(C(=S)Nc1c(C)cccc1C)C(C)c1ccco1 (stereo not drawn) the results were Menin MLL FP FL -2.8, gsp ag 28%, ClpP mod 2.1%, TRPML1 agonist 1.3, gsp antagonist 5% and TRPML1 inh -18.
For O=C(c1ccc(NS(=O)(=O)c2ccc(Cl)c(Cl)c2)cc1)N1CCOCC1 the results were gsp ag -10%[15.4 µM], TRPML1 agonist -0.9, gsp antagonist -7% and TRPML1 inh -1.
COc1ccc(-c2nc(CN3CCN(Cc4cccc(F)c4)CC3)c(C)o2)cc1 was read as Menin MLL FP FL 1.9, gsp ag -59%[inhibitor], TRPML1 agonist 0.1, gsp antagonist -1% and TRPML1 inh -1.
COc1cc(C(=S)N2CCOCC2)ccc1OC(=O)c1ccc([N+](=O)[O-])cc1[N+](=O)[O-] was read as Menin MLL FP FL -0.4, gsp ag -11%, ClpP mod 0.6% and gsp antagonist -15%.
For CCOc1ccc(Cl)cc1S(=O)(=O)N1CCN(c2ccc(C)c(C)c2)CC1 the results were Menin MLL FP FL -1.7, gsp ag -24%, ClpP mod -11%, TRPML1 agonist -0.2, gsp antagonist -6% and TRPML1 inh 36.
`O=C(CSc1nnc(NC(=O)c2ccccc2F)s1)Nc1ccccc1F` gave Menin MLL FP FL 0.7, gsp ag 17%[15.4 µM], TRPML1 agonist -0.1, gsp antagonist -9% and TRPML1 inh -7.
For CCOc1ccc(NC(=O)CC2C(=O)N(c3ccc(F)cc3)C(=O)N2CCc2sccc2C)cc1 (stereo not drawn) the results were ClpP mod 0.9%, TRPML1 agonist -0.2 and TRPML1 inh 19.
For CC(C)CNC(=S)Nc1ccc(Oc2ccccc2)cc1 the results were Menin MLL FP FL 6.1, gsp ag -3%, ClpP mod 0.1%, TRPML1 agonist 1.1, gsp antagonist -1% and TRPML1 inh 5.
Screening COc1ccc(-n2c(CNC(=O)c3cccs3)n[nH]c2=S)cc1 returned Menin MLL FP FL 0.2, gsp ag 6%[15.4 µM], TRPML1 agonist 0.8 and TRPML1 inh 5.
`Cc1cc(-c2n[nH]c(=S)n2CC(C)C)cs1` gave Menin MLL FP FL 2.9, gsp ag 14%, ClpP mod -8.9%, TRPML1 agonist 3.0, gsp antagonist 7% and TRPML1 inh -24.
Cc1oc2ncn(C)c(=O)c2c1C(=O)NC(C)c1ccccc1 (stereo not drawn) was read as ClpP mod -2.4%, TRPML1 agonist 2.5 and TRPML1 inh -12.
For COc1cc(S(=O)(=O)n2nc(C)cc2C)c(OC)cc1Cl the results were Menin MLL FP FL 2.8, gsp ag 17%, ClpP mod -2.4%, TRPML1 agonist -0.4, gsp antagonist -29% and TRPML1 inh -9.
Screening O=S(=O)(NCCCc1ccccc1)c1ccc(Cl)cc1 returned Menin MLL FP FL 0.3, gsp ag -2%, ClpP mod 0.3%, TRPML1 agonist 0.5, gsp antagonist 12% and TRPML1 inh -5.
`COC(=O)c1ccc(CSc2nnnn2-c2ccc(C)cc2C)o1` gave Menin MLL FP FL -1.3, gsp ag -46%[inhibitor], ClpP mod -3.2%, TRPML1 agonist -0.3, gsp antagonist inconclusive and TRPML1 inh -5.
CN1CCN(S(=O)(=O)c2cc(C(F)(F)F)ccc2Cl)CC1 was read as Menin MLL FP FL -3.3, gsp ag 12%[15.4 µM], ClpP mod -0.4%, TRPML1 agonist -1.0, gsp antagonist -4% and TRPML1 inh 9.
Screening Cc1ccc(S(=O)(=O)NC2c3cccc4cccc(c34)C2Sc2ncccn2)cc1 (stereo not drawn) returned Menin MLL FP FL 2.9, gsp ag -13%, ClpP mod -1.4%, TRPML1 agonist 1.4, gsp antagonist 5% and TRPML1 inh -25.
Screening Oc1ccc(/C=C/c2cnccn2)cc1 returned Menin MLL FP FL 8.9, gsp ag 35%, TRPML1 agonist 1.6, gsp antagonist 3% and TRPML1 inh 30.
For CCOc1ccccc1N1CCN(C(=O)NC2CCCCC2)CC1 the results were Menin MLL FP FL -5.4, gsp ag 13%, ClpP mod -1.0%, TRPML1 agonist -0.6, gsp antagonist 4% and TRPML1 inh -18.
CN(C)c1ncc(C2=C(Cl)C(=O)C(N3CCCC3)=C(Cl)C2=O)s1 was read as gsp ag 10%, ClpP mod -1.0%, TRPML1 agonist 1.0, gsp antagonist -5% and TRPML1 inh -8.
Screening O=C(O)c1cccc(Nc2c([N+](=O)[O-])c(=O)oc3ccccc23)c1 returned Menin MLL FP FL 2.7, gsp ag 1%, ClpP mod -1.2%, TRPML1 agonist 0.5, gsp antagonist 3% and TRPML1 inh 8.
NC(N)=N/N=C/c1ccc(OCc2ccccc2Cl)cc1 was read as Menin MLL FP FL 2.0, gsp ag 2%, ClpP mod -3.0%, TRPML1 agonist -0.4, gsp antagonist 1% and TRPML1 inh -16.
CC(C)NC(=O)N1CCOCCOCCN(C(=O)NC(C)C)CCOCCOCC1 was read as Menin MLL FP FL 3.4, gsp ag 5%, ClpP mod 1.5%, TRPML1 agonist 0.0, gsp antagonist 9% and TRPML1 inh 11.
`CCS(=O)(=O)N1CCC(C(=O)NCCc2ccc(C)cc2)CC1` gave Menin MLL FP FL 4.4, gsp ag inconclusive, ClpP mod 1.1%, TRPML1 agonist -0.3, gsp antagonist 8% and TRPML1 inh -8.
CCOC(=O)N1CCC(NC(=O)CCN2C(=O)COc3ccccc32)CC1 was read as Menin MLL FP FL 3.2, gsp ag 1%, ClpP mod -0.3%, TRPML1 agonist -0.5, gsp antagonist 1% and TRPML1 inh -13.
For COc1ccc(CNC(=O)CN(Cc2ccc(Cl)cc2)S(=O)(=O)c2ccccc2)cc1 the results were Menin MLL FP FL 1.1, gsp ag -29%, ClpP mod 1.1%, TRPML1 agonist 4.9, gsp antagonist -10% and TRPML1 inh 44.
`COc1ccc(C(=O)C2CCN(S(=O)(=O)c3ccc4c(c3)OCCO4)CC2)cc1` gave Menin MLL FP FL 3.8, gsp ag 5%, ClpP mod -3.9%, TRPML1 agonist 2.0, gsp antagonist -23% and TRPML1 inh 14.
For NC(N)=NC(=O)c1nc(Cl)c(N2CCCCCC2)nc1N the results were Menin MLL FP FL 2.3&-2.8, ClpP mod 1.6%&-2.9%, TRPML1 agonist 0.0&0.0, gsp antagonist 0% and TRPML1 inh 8.
`O=C(NC(CC1CCCCC1)C(=O)O)c1ccccc1` (stereo not drawn) gave gsp ag 13%, ClpP mod -3.8%, TRPML1 agonist -0.3, gsp antagonist -8% and TRPML1 inh 7.
Screening CCNC(=S)N/N=C/c1sc(N2CCCCC2)nc1-c1cccs1 returned Menin MLL FP FL inconclusive, gsp ag 5%[15.4 µM], TRPML1 agonist -0.1, gsp antagonist -5% and TRPML1 inh 34.

Two successive records out of the list so far, quoted:
`O=C(NC(CC1CCCCC1)C(=O)O)c1ccccc1` (stereo not drawn) gave gsp ag 13%, ClpP mod -3.8%, TRPML1 agonist -0.3, gsp antagonist -8% and TRPML1 inh 7.
Screening CCNC(=S)N/N=C/c1sc(N2CCCCC2)nc1-c1cccs1 returned Menin MLL FP FL inconclusive, gsp ag 5%[15.4 µM], TRPML1 agonist -0.1, gsp antagonist -5% and TRPML1 inh 34.

Screening results: PubChem BioAssay, National Center for Advancing Translational Sciences (NCATS)

No enrichment for hits (roughly 2.1% active in at least one column).
